# VCAM-1 inhibition – suppression of endothelial VCAM-1 upregulation – cell-based, plate reader, pooled HUVEC, TNFa stimulus (AID 454); HUVEC TNFa-induced VCAM-1 surface immunofluorescence, plate reader; numbers were filed only for top-ranked candidate wells; hit rate 0.2% among 10,000; inhibition, % at 5 µM;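 active means compound among top-ranked inhibitors of TNF-induced VCAM-1 adhesion protein staining, with the hit upheld by image or statistical review; inactive means the rest, including hits rejected on review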;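 further: 0% = TNFa with vehicle and 100% = cells without TNFa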
# FPR binder – binds the human formylpeptide receptor FPR | hit rate 0.74% among 24,000 | P21462 | AID 440 | FPR-expressing cells, fluorescent ligand binding, flow cytometry | inhibition, %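 (tested at 6.7 µM)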;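 further: 0% = buffer wells and 100% = receptor blocker peptide wells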
# Target sequence (P21462 whole entry, looked up): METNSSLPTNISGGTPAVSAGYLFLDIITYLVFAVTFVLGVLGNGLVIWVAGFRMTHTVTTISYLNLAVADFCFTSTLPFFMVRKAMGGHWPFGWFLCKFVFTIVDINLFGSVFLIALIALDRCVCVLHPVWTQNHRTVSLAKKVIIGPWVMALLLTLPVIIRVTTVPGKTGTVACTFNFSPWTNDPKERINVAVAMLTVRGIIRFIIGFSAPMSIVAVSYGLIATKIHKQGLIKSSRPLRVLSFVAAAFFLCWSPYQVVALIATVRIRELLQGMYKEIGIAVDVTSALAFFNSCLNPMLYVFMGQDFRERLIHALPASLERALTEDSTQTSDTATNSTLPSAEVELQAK
# VCAM-1 down imaging – suppression of endothelial VCAM-1 upregulation – imaging, high-content imaging, pooled HUVEC, TNFa stimulus (AID 456). HUVEC TNFa-induced VCAM-1 surface expression, immunofluorescence imaging; numbers were filed only for top-ranked candidate wells. inhibition, % at 5 µM, or IC50 in µM where a hit was titrated. hit rate 0.2% among 10,000;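 active means top tenth filtered wells with inhibition above zero that passed visual or statistical confirmation; inactive means the rest, including hits rejected on review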;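 further: 0% = stimulated vehicle wells and 100% = unstimulated cells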
# VCAM-1 augmentation – enhancers of VCAM-1 display on endothelial cells, imaging, high-content imaging, pooled HUVEC, TNFa stimulus (AID 457); calls only; hit rate 0.2% among 10,000; Pooled HUVEC, TNFa-induced VCAM-1 immunofluorescence imaging; hits of this screen are not shown here;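 active means a top-ranked rise in VCAM-1 staining upheld on image or statistical review; inactive means the rest, including candidates rejected on review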;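 further: compounds tested at 5 µM in the well; cells exposed to compound for 24 hours before fixing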
# FPRL1 ligand – ligands of human FPRL1, also counter-screen for FPR ligands; P25090; hit rate 0.3% among 24,000; FPRL1-expressing cells, fluorescent ligand binding inhibition, flow cytometry; inhibition, %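 (tested at 6.7 µM)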; AID 441;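 further: 0% = buffer alone and 100% = receptor blocker peptide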
# Target sequence (P25090 whole entry, looked up): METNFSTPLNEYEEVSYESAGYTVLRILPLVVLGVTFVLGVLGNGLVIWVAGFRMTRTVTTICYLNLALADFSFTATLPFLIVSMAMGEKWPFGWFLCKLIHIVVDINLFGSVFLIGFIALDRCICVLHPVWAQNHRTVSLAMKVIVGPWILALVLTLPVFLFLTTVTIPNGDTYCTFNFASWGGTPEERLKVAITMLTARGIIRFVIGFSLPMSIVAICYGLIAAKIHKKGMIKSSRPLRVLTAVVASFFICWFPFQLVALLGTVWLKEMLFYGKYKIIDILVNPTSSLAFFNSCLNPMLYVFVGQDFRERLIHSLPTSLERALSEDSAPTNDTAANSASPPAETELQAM
# Numbers without * were called inactive; i = inactive; nt = no result given.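 How the source made its calls, unless noted: active means mean above 30%; inconclusive means self-fluorescent; inactive means the rest.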 Only part of the results is shown. The share of hits here may be higher or lower than overall.
SMILES,VCAM-1 inhibition,FPR binder,VCAM-1 down imaging,VCAM-1 augmentation,FPRL1 ligand
O=C(O)c1c2c(nc3ccc(S(=O)(=O)N4CCC(C(=O)NC5CCCC5)CC4)cc13)CCCCC2,nt,9,nt,nt,-2
CCN(CCNC(=O)C1CCCN(S(=O)(=O)c2cnc[nH]2)C1)c1ccccc1 (stereo unspecified),nt,-2,nt,nt,-1
Cc1ccc(OC(=O)c2ccc(C)c(C)c2)cn1,nt,-2,nt,nt,8
CCCCOc1ccc(-c2nnn(CC(=O)Nc3ncc(CC(=O)OCC)s3)n2)cc1,i,-1,i,i,-10
CC1=C(C(=O)Nc2ccccc2)C(c2ccncc2)n2nnnc2N1 (stereo unspecified),nt,-1,nt,nt,4
COc1ccc(C(=O)N(Cc2nc(-c3ccc(C)cc3)no2)C(C)C)cc1OC,nt,4,nt,nt,-2
CCCCN(CC)CCNC(=O)Cn1cnc2sc(C)c(S(=O)(=O)N3CCOCC3)c2c1=O,nt,-22,nt,nt,-17
CCCc1cc(C(N)=O)c(NC(=O)c2ccco2)s1,i,-2,i,i,1
CCOC(=O)N1CCC(NC(=O)CN2C(=O)CSc3ncccc32)CC1,nt,-4,nt,nt,0
COc1ccc(S(=O)(=O)Cc2ccc(C(=O)NC3CC3)o2)cc1,nt,-4,nt,nt,5
Cc1cc(C(F)(F)F)c2c(C)nn(CCc3nn[nH]n3)c2n1,i,-6,i,i,2
Cc1ccc2c(c1)NC(=O)C(CC(=O)NCCCN1CCCC1)O2 (stereo unspecified),nt,-1,nt,nt,3
Cc1cc(C)c2c(-n3cccc3)c(C(=O)O)sc2n1,nt,22,nt,nt,2
COc1c(C)cc(Br)cc1C(=O)Nc1cccc(-c2nc3ncccc3o2)c1,nt,0,nt,nt,-4
Cc1cc(NC(=O)c2cc(C(C)C)on2)no1,nt,5,nt,nt,0
CC1CCCCN1C(=O)Cn1c(=O)n(C2CCCCC2)c(=O)c2ccccc21 (stereo unspecified),nt,10,nt,nt,-8
O=C1COc2ccc(C(=O)COC(=O)CCc3ccc(S(=O)(=O)N4CCOCC4)cc3)cc2N1,i,3,i,i,-2
COc1ccc(N2C(=O)NC3CC2(C)Oc2ccc(Br)cc23)cc1OC (stereo unspecified),nt,2,nt,nt,2
N=c1c[n+](-c2ccc(Cl)cc2)[n-]o1,nt,4,nt,nt,-10
O=C(NC(Cc1c[nH]c2ccccc12)C(=O)O)c1ccccc1 (stereo unspecified),nt,1,nt,nt,-7

# An excerpt from above in order of their number in FPR binder, descending.
SMILES	VCAM-1 inhibition	FPR binder	VCAM-1 down imaging	VCAM-1 augmentation
Cc1cc(C)c2c(-n3cccc3)c(C(=O)O)sc2n1	nt	22	nt	nt
CC1CCCCN1C(=O)Cn1c(=O)n(C2CCCCC2)c(=O)c2ccccc21 (stereo unspecified)	nt	10	nt	nt
COc1ccc(C(=O)N(Cc2nc(-c3ccc(C)cc3)no2)C(C)C)cc1OC	nt	4	nt	nt

# Later entries.
SMILES,VCAM-1 inhibition,FPR binder,VCAM-1 down imaging,VCAM-1 augmentation,FPRL1 ligand
O=C(CCCN1CC=C(n2c(=O)[nH]c3ccccc32)CC1)c1ccc(F)cc1,i,-8,i,i,1
FC(F)(F)c1cc(-c2ccccc2)nc(N2CCCCC2)n1,i,9,i,i,4
COCCNC(=O)Cn1cnc2ccc(S(=O)(=O)N3CCC(C)CC3)cc2c1=O,nt,3,nt,nt,3
CCOC(=O)CCN(Cc1cccs1)S(=O)(=O)c1ccc(Cl)cc1,nt,0,nt,nt,1
Cc1ccc2cc3cc(C(=O)N4CC(C)CC(C)C4)oc3nc2c1 (stereo unspecified),i,0,i,i,-3
COc1ccc(S(=O)(=O)N2CCN(S(=O)(=O)c3ccc4c(c3)OCCO4)CC2)cc1C,i,-5,i,i,-6
COc1ccc(NC(=O)C2CC(c3ccc(OC)c(OC)c3)=NO2)cc1OC (stereo unspecified),nt,0,nt,nt,3
O=C(CN1CCN(c2nc(-c3ccc(Cl)cc3)cs2)CC1)NCc1ccco1,i,-5,i,i,-7
COC(=O)c1ccc(N2C(=O)CC(N3CCN(C(=O)c4ccco4)CC3)C2=O)cc1 (stereo unspecified),i,-4,i,i,-3
CCCCn1c(N(CCOC(C)=O)C(C)=O)nc2ccccc21,nt,3,nt,nt,-1
COc1nc(NCC(C)C)nc(Oc2ccc(=O)n(-c3ccccc3)n2)n1,nt,-1,nt,nt,1
Brc1ccc(Oc2nnnn2-c2ccccc2)cc1,nt,15,nt,nt,4
CC1(C)OC(=O)C(=CNC(CCC(N)=O)C(=O)O)C(=O)O1 (stereo unspecified),i,1,i,i,-2
CCOC(=O)N1CCC(N2C(=O)c3ccc(C(=O)NCc4ccc(F)cc4)cc3C2=O)CC1,nt,1,nt,nt,-5
COc1ccc(OC)c(NC(=O)CCn2cccc2)c1,nt,-2,nt,nt,-1
OCC1N=C(c2ccccn2)OC1c1ccccc1 (stereo unspecified),nt,-4,nt,nt,9
CCOc1ccc(NC(=O)Nc2ccc3c(c2)N(C)C(=O)CS3)cc1,nt,-2,nt,nt,-4
Brc1cccc(-c2nnc(SCc3ccon3)n2-c2ccccc2)c1,nt,1,nt,nt,4
Cn1c(Cn2c(=O)sc3ccccc32)nnc1SCc1cccnc1,nt,-8,nt,nt,1
Cc1nc2ccc(S(=O)(=O)NCC(=O)N3CCCC(C)C3)cc2s1 (stereo unspecified),nt,-1,nt,nt,-3

# At a glance, some entries already given.
SMILES,VCAM-1 inhibition,FPR binder,VCAM-1 down imaging,VCAM-1 augmentation,FPRL1 ligand
O=C(CCCN1CC=C(n2c(=O)[nH]c3ccccc32)CC1)c1ccc(F)cc1,i,-8,i,i,1
FC(F)(F)c1cc(-c2ccccc2)nc(N2CCCCC2)n1,i,9,i,i,4
COCCNC(=O)Cn1cnc2ccc(S(=O)(=O)N3CCC(C)CC3)cc2c1=O,nt,3,nt,nt,3
CCOC(=O)CCN(Cc1cccs1)S(=O)(=O)c1ccc(Cl)cc1,nt,0,nt,nt,1
Cc1ccc2cc3cc(C(=O)N4CC(C)CC(C)C4)oc3nc2c1 (stereo unspecified),i,0,i,i,-3

# Next structures
SMILES,VCAM-1 inhibition,FPR binder,VCAM-1 down imaging,VCAM-1 augmentation,FPRL1 ligand
CCOc1ccc(N(CC(=O)Nc2nccs2)S(=O)(=O)c2c(C)noc2C)cc1,nt,3,nt,nt,-11
O=C(Nc1ccc(F)cc1F)N1CCN(c2ncccn2)CC1,nt,-4,nt,nt,-6
O=C(CCN1C(=O)c2ccccc2C1=O)OCN1C(=O)c2ccccc2C1=O,i,-11,i,i,2
CCN(CCCNC(=O)COc1cc(=O)n(CC)c2ccccc12)Cc1ccccc1,nt,-6,nt,nt,4
CCOc1ccccc1NC(=O)C1CCC(CNc2c(N3CCOCC3)c(=O)c2=O)CC1 (stereo unspecified),nt,4,nt,nt,2
Cc1ccc(C)c(NC(=O)CS(=O)(=O)c2c[nH]c3ccccc23)c1,nt,1,nt,nt,-1
COc1cccc(CN2C(=O)CCC2(C)C(=O)NC2CCCCC2)c1 (stereo unspecified),nt,-1,nt,nt,12
COc1ccc(-n2nc(C(=O)NCC(=O)NCC3CCCO3)c3ccccc3c2=O)cc1 (stereo unspecified),i,-2,i,i,2
COc1ccc(-c2nc(CSCC(=O)NCc3ccc4c(c3)OCO4)c(C)o2)cc1OC,i,5,i,i,0
COC(=O)c1ccc(NS(=O)(=O)c2ccc3c(c2)oc(=O)n3C)cc1,nt,0,nt,nt,-3
Cc1cc(C)cc(NC(=O)CCNS(=O)(=O)c2ccc3c(c2)oc(=O)n3C)c1,i,8,i,i,4
Cc1csc(NC(=O)CCS(=O)(=O)c2ccc(Br)cc2)n1,i,-8,i,i,0
Cc1ccc(-c2nnn(CC(=O)N(Cc3cccs3)C(C(=O)NC(C)(C)C)c3ccc(C)o3)n2)o1 (stereo unspecified),i,9,i,i,8
Cc1cc(Nc2ccc(N3CCC(C)CC3)cc2)n2ncnc2n1,i,-3,i,i,4
Cc1ccc(-n2c(Cc3cccn3C)nnc2SCC(=O)N2CCc3ccccc32)cc1,nt,-4,nt,nt,0
Cc1cc(C)cc(N(C(=O)c2ccc3c(c2)OCO3)C2C=CS(=O)(=O)C2)c1 (stereo unspecified),nt,2,nt,nt,-15
Cc1c(C(=O)NCCN2CCOCC2)oc2ccc(S(=O)(=O)N3CCCCCC3)cc12,nt,-4,nt,nt,0
COc1ccccc1NC(=O)CSc1nnc(-c2ccccc2)o1,nt,4,nt,nt,3
COc1cccc(NC(=O)COC(=O)c2ccco2)c1,i,3,i,i,6
COC(=O)c1ccc(-c2nn(C)c(=O)c3ccccc23)cc1,i,0,i,i,-1
CCNC(=O)N(C)c1nncnc1C(=O)NC,i,-4,i,i,-2
COc1cc2nc(N3CCN(C(=O)C4CCCO4)CC3)nc(N)c2cc1OC (stereo unspecified),i,7,i,i,5
O=C1C=C(OCc2ccccc2)CN1,nt,-1,nt,nt,1
O=C(O)COc1ccc(S(=O)(=O)NCCc2ccccc2)cc1,i,-3,i,i,-1
O=C(CN1C(=O)COc2ccccc21)NCCCN1CCN(Cc2ccccc2)CC1,i,-5,i,i,2
CNC(=O)c1ccc(N(Cc2ccccc2C)S(C)(=O)=O)cc1,i,-1,i,i,-1
O=C(C1CCC(CNS(=O)(=O)c2cccs2)CC1)N1CCCCC1 (stereo unspecified),nt,-13,nt,nt,-18
CCOC(=O)N1CCN(Cc2nc3c(c(=O)[nH]c(=O)n3C)n2CCCc2ccccc2)CC1,nt,-5,nt,nt,8
CC12CN3CC(C)(CN(C1)C3c1cc(Br)ccc1O)C2=O (stereo unspecified),i,2,i,i,7
COc1ccc(OC)c(CNC(=O)CCNC(=O)Cn2ccc3ccccc3c2=O)c1,nt,3,nt,nt,-9
Cc1ncn(C23CC4CC(CC(O)(C4)C2)C3)n1,nt,1,nt,nt,8
CCC(c1nnnn1Cc1ccco1)N(CCc1ccccc1)Cc1cc2cccc(C)c2[nH]c1=O (stereo unspecified),71,0,i,i,-4
Cc1cccc(N(C)C(=O)c2coc(=O)c3ccccc23)c1,i,0,i,i,-2
COc1cccc(C2C(C(=O)c3cc4cccc(OC)c4o3)=C(O)C(=O)N2c2cc(C)on2)c1OC (stereo unspecified),nt,12,nt,nt,-4
O=C(c1cnc2n(c1=O)CCS2)N1CCCc2ccccc21,nt,-7,nt,nt,-3
O=C(NC1CCCC1)c1c[nH]c2ccc(F)cc2c1=O,i,5,i,i,-11
CC(NC(=O)COc1cc(=O)n(C)c2ccccc12)c1ccc2c(c1)OCCO2 (stereo unspecified),nt,0,nt,nt,-1
O=c1cc(NCc2ccccc2)nc2n1CCCS2,i,-14,i,i,2
CCn1ncc(C2=NOC(C(=O)NCc3ccc(Cl)cc3)C2)c1C (stereo unspecified),i,1,i,i,-4
C=CCn1c(SCc2ccc3nonc3c2)nnc1-c1cccs1,i,6,i,i,-1
O=C(NCc1ccco1)C1CCCN(S(=O)(=O)c2cccc3cccnc23)C1 (stereo unspecified),nt,1,nt,nt,-1
CN(Cc1ccccc1)c1nc2c(c(=O)[nH]c(=O)n2C)n1Cc1ccccc1Cl,i,0,i,i,2
CC1CCCN(CCCNC(=O)C2CC(=O)N(c3ccc(F)c(Cl)c3)C2)C1 (stereo unspecified),nt,-2,nt,nt,4
NNC(=O)c1ccncc1,i,0,i,i,-2
CCOC(=O)N1CCC(NC(=O)c2cc3c(-c4ccc(OC)c(OC)c4)nn(C)c3s2)CC1,nt,3,nt,nt,3
Cc1cccc(CS(=O)(=O)Cc2ccc(C(=O)NCc3cccnc3)o2)c1,nt,-1,nt,nt,-1
COc1ccc(OC)c(NC(=O)C2CCCN2C(=O)OCc2ccccc2)c1 (stereo unspecified),nt,1,nt,nt,4
Cc1cc(NCc2ccc(F)cc2Cl)n2nnnc2n1,nt,-8,nt,nt,2
CC(=O)N1CCCc2cc(S(=O)(=O)Nc3ccc4c(c3)OCO4)ccc21,nt,-1,nt,nt,1
CCOC(=O)N1CCN(C(=O)C2CC(c3ccc(F)cc3)=NO2)CC1 (stereo unspecified),nt,9,nt,nt,8
CCOC(=O)N1CCC(NC(=O)CCC(=O)N2CC(C)Oc3ccc(C)cc32)CC1 (stereo unspecified),nt,4,nt,nt,1
Cc1ccc(Cl)cc1NC(=O)Cn1cccc1,nt,3,nt,nt,0
O=C(COC(=O)CCc1c[nH]c2ccccc12)NC1CCS(=O)(=O)C1 (stereo unspecified),i,-3,i,i,4
CCN(CC)C(=O)c1cncc(C(=O)N(CC)CC)c1-c1ccccc1,nt,-1,nt,nt,6
CCN=C1SC(CC(=O)Nc2ccccc2)C(=O)N1CC (stereo unspecified),i,0,i,i,-4
O=C(O)C1C2C=CC3(CN(C4CCCC4)C(=O)C13)O2 (stereo unspecified),i,-7,i,i,2
CCC1Oc2ccccc2N(CC(=O)NCCCN2CCCCC2C)C1=O (stereo unspecified),nt,-4,nt,nt,12
CC1CCCN(C(=O)c2cc3c(-c4ccc(Cl)cc4)nn(C)c3s2)C1 (stereo unspecified),i,-6,i,i,-6
